Compound activity (PubChem BioAssay)
KSHV LANA nucl = inhibitors of KSHV LANA binding to nucleosomes; FITC-LANA1-23 / chicken nucleosome fluorescence polarization; hits give low values; 51,000 tested, 0.3% active; z-score (test concentration not listed);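 active = both repeat wells score below -2 in polarization z-score versus plate sample wells, excluding overly bright wells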;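 note: 100 nL library stock added to about 30 µL; numbers are from one replicate; some results filed as inactive read as strong as hits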
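Test system: purified chicken nucleosomes with FITC-labelled LANA N-terminal peptide (1-23); Input: 240 nM purified chicken nucleosomes (480 nM peptide binding sites), final; Medium: TEN-BT buffer, pH 7.5; Timing: 10–45 min, room temperature; Technique: fluorescence polarization, 480 nm excitation, 535 nm parallel and perpendicular emission; Replication: duplicates.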
Ab BasE inh = inhibitors of Acinetobacter baumannii siderophore enzyme BasE | AID 485350 | purified BasE, fluorescence polarization binding displacement | 84,000 tested, 0.1% active | inhibition, % (concentration not given with the values);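 active = both replicates above 25% with normal brightness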;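 note: 0% = negative plate control signal and 100% = positive plate control signal; stock transfer was 100 nL into about 30 µL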
* marks the source's active call; other numbers are inactive results; . = not tested or not shown.

SMILES	KSHV LANA nucl	Ab BasE inh
CC(C)(C)NC(=O)NCC(c1ccco1)N1CCc2ccccc2C1 (configuration not stated)	0.19	1.4
CCN(CC)S(=O)(=O)c1ccc(SC)cc1	-0.43	-0.6
OCCOc1ccc(OCCO)cc1	0.29	-1.9
Cc1ccc(NCc2cccn2-c2nnc(N3CCCCC3)s2)cc1	.	1.6
Cc1nc(SCC(=O)c2ccc(NS(C)(=O)=O)cc2)n(C2CCCCC2)c1C	.	1.4
COc1ccc(N=Cc2ccc(C)o2)cc1	-0.16	4.6
Cc1ccc(CSc2nnc(-c3ccncc3)n2CC2CCCO2)cc1 (configuration not stated)	-0.31	-0.4
Cc1c(C)n(Cc2ccc(Cl)cc2)c2ccc(C(=O)NCc3ccco3)cc12	2	-4.4
CN1CCc2c(sc3c2C(=O)NC(/C=C/c2ccco2)N3)C1 (configuration not stated)	.	1.2
CC(C)NC(=O)CN1Cc2ccccc2C1=O	0.098	0.2
NC(=O)C1CCCN(C(=O)c2ccc3c(c2)NC(=O)CS3)C1 (configuration not stated)	.	0.4
CC1(C)CC(=O)C(C=NCC2CCN(C(=O)c3ccccc3)CC2)=C(O)C1	0.04	-2.4
COc1ccc(Br)cc1C(=O)Nc1ccc(-c2nnc(-c3ccco3)o2)cc1	-1.2	3.7
CN(CC(=O)O)S(=O)(=O)c1ccc(Cl)cc1	.	0.9
O=C1NC(=O)N(C2CCCCC2)C(=O)/C1=C/c1ccc(Br)cc1	-1	1.0
COc1ccc(-n2c(O)cnc2Nc2nc(C)cc(C)n2)cc1OC	-0.75	-0.5
CCC(c1nnc(SCC(=O)Nc2nc(-c3ccc(OC)cc3)cs2)o1)N(C)C (configuration not stated)	.	-0.6
Cc1ccc(O)c(C(=O)c2cnc3onc(-c4ccc(F)cc4)c3c2)c1	.	0.4
O=C(CCN1CCC(c2cccs2)=N1)c1cccs1	.	-0.2
CC1CCCCC1NC(=O)CN(C)S(=O)(=O)c1ccc2c(c1)c(=O)n(C)c(=O)n2C (configuration not stated)	0.81	-1.6
COc1ccccc1N=c1scc(-c2ccco2)n1/N=C/c1ccco1	.	-0.1
COc1cc2c(cc1OC)C(=NCCC(=O)O)NC(C)(C)C2	.	0.0
CCCNC(=O)c1cc(-c2ccc(OC)cc2)n(CCCOC)c1C	0.66	2.1
CCOc1ccc2[nH]c(=O)c(CN(Cc3ccccc3OC)C(=O)N3CCCC3)cc2c1	-0.004	1.4

Given in CSV form: entries from further up
canonical_smiles,KSHV LANA nucl,Ab BasE inh
CCCNC(=O)c1cc(-c2ccc(OC)cc2)n(CCCOC)c1C,0.66,2.1
CCOc1ccc2[nH]c(=O)c(CN(Cc3ccccc3OC)C(=O)N3CCCC3)cc2c1,-0.004,1.4

Going on with the list:
SMILES	KSHV LANA nucl	Ab BasE inh
Cc1ccc(S(=O)(=O)N2CC3CCC2C3)cc1 (configuration not stated)	.	0.8
CN1CCC(N(C)C(=O)/C(C#N)=C/c2ccc(OC(F)F)cc2)CC1	.	0.5
CCCN1Cc2cccc(C(=O)Nc3ccc(CC)cc3)c2C1=O	-0.22	2.2
CC1=C(c2ccccc2)S(=O)(=O)N(CC(=O)O)C1=O	-0.28	3.6
COc1ccc(N2CCN(C(=O)CC(c3cccc(C)c3)n3cccc3)CC2)cc1 (configuration not stated)	-0.6	1.8
CC(OC(=O)c1oc2ccccc2c1CSc1ncn[nH]1)C(=O)Nc1ccc(S(=O)(=O)Nc2ncccn2)cc1 (configuration not stated)	.	0.4
O=C(CSc1ccccc1)N1CCN(C(=O)C2CCCO2)CC1 (configuration not stated)	0.97	2.8
N#CCn1c(CSc2n[nH]c(N)n2)nc2ccccc2c1=O	.	4.5
CCCC(=O)NC(=S)c1sc(N2CCCC2)nc1-c1cccs1	.	2.8
CCNc1nc(CN2CCOCC2)nc2sc3c(c12)CCCC3	.	-1.9
Cc1cc(C)n(C(=O)N2c3ccccc3Sc3ccccc32)n1	-0.14	2.1
CC1(C)CCc2cc(-c3ccn(S(=O)(=O)c4cccc(C(F)(F)F)c4)n3)ccc2O1	.	1.6

Some of these compounds in order of molecular weight, smallest number first:
SMILES	KSHV LANA nucl	Ab BasE inh
COc1cc2c(cc1OC)C(=NCCC(=O)O)NC(C)(C)C2	.	0.0
CN1CCc2c(sc3c2C(=O)NC(/C=C/c2ccco2)N3)C1 (configuration not stated)	.	1.2
CCCN1Cc2cccc(C(=O)Nc3ccc(CC)cc3)c2C1=O	-0.22	2.2
Cc1c(C)n(Cc2ccc(Cl)cc2)c2ccc(C(=O)NCc3ccco3)cc12	2	-4.4
COc1ccc(N2CCN(C(=O)CC(c3cccc(C)c3)n3cccc3)CC2)cc1 (configuration not stated)	-0.6	1.8
CCC(c1nnc(SCC(=O)Nc2nc(-c3ccc(OC)cc3)cs2)o1)N(C)C (configuration not stated)	.	-0.6
CC(OC(=O)c1oc2ccccc2c1CSc1ncn[nH]1)C(=O)Nc1ccc(S(=O)(=O)Nc2ncccn2)cc1 (configuration not stated)	.	0.4

The list goes on.
SMILES	KSHV LANA nucl	Ab BasE inh
Cc1cccc2cc(C#N)c(N3CCC(C)CC3)nc12	-1.2	1.8
CSc1oc(-c2ccco2)nc1S(=O)(=O)c1ccccc1	-0.2	-2.0
C=CCN1C(=O)/C(=C2\SC(=Nc3ccccc3)N(c3ccccc3)C2=O)c2ccccc21	.	2.8
COc1ccc(N/C=C\C(=O)c2ccc3c(c2)OCO3)cc1	0.05	-1.3
O=C(Nc1ccccc1C(=O)NC1CCCC1)NC1CCCC1	-0.54	2.7
O=C(O)CC(C(=O)O)N1C(=O)CSC1=S (configuration not stated)	.	-0.1
O=C1CC(C(=O)N(C/C=C/c2ccccc2)c2ccc3c(c2)OCCO3)CN1Cc1ccco1 (configuration not stated)	.	-0.1
COC(=O)c1ccc2c(=O)[nH]c(COC(=O)c3ccccc3NCCO)nc2c1	.	1.1
COC(=O)Nc1nn(Cc2ccccc2F)cc1Br	-1.1	1.8
COC(=O)C(N)C(C)C (configuration not stated)	.	1.2
CS(=O)(=O)Nc1ccc2c(c1)OCC(=O)N2Cc1ccccc1	0.16	2.9
O=C(OCN1C(=O)c2ccccc2C1=O)c1ccco1	1.6	-1.0
CC(C)N(C(=O)Nc1ccccc1)C(C)C	-0.57	0.5
N#Cc1ccccc1NS(=O)(=O)c1ccccc1	.	-0.4
CC(O)CON1C(=O)c2ccccc2C1=O (configuration not stated)	0.52	2.2
O=C(OCCN1C(=O)c2ccccc2C1=O)c1cccc(C(F)(F)F)c1	.	0.4
CCOC(=O)C1C(=O)Oc2ccc(Br)cc2C1C1(C(=O)OC)CCCCC1 (configuration not stated)	.	2.1
NCc1ccccc1OC(F)(F)F	.	1.4
Cc1cccc(OCCCC(=O)Nc2ccccc2N2CCOCC2)c1	.	1.0
COc1ccc(OCC(=O)N(C)CC2COc3ccccc3O2)cc1 (configuration not stated)	.	1.9
CCCCS(=O)(=O)Nc1ccc2cn[nH]c2c1	.	0.5
CC(C)NC(=O)CCCc1nc(-c2ccc(Cl)cc2)no1	0.72	0.5
NNC(=O)C1CCC(c2ccc(Cl)cc2)CC1 (configuration not stated)	.	-1.8
CCCCN1C(=O)c2ccc(C(=O)Oc3ccc(-c4nnco4)cc3)cc2C1=O	.	0.3
CCc1nn(-c2ccccc2)c(=O)c2ccccc12	0.32	-0.4
CC(=O)c1sc2nsc(SCCN3CCCCC3)c2c1N	0.24	.
O=C1CC2(CCCC2)C(=O)N1c1ccc(S(=O)(=O)NCc2ccco2)cc1Cl	0.46	0.9
O=C(Nc1ccc(F)cc1)N1CCC(Nc2nc3ccccc3o2)CC1	0.83	-0.4
NC(=O)C1CCCN1c1ncnc2sc(-c3ccccc3)cc12 (configuration not stated)	.	-0.2
COC(=O)c1cc2c(C)nn(-c3ccccc3)c2s1	.	2.3
COc1ccc(S(=O)(=O)Nc2ccc(O)c(Sc3ncn[nH]3)c2)cc1	-0.46	2.4
O=C(O)COc1ccc(-n2cccc2)cc1	-0.28	1.2
COc1cccc(-c2cc(C(=O)N(C)C3CCCCC3)[nH]n2)c1	-1	-9.0
CCN1CCn2c3c(c4cc(Cl)ccc42)CCCC31 (configuration not stated)	.	-1.6
COCN1C(=O)c2cc(Cl)c(Cl)cc2C1=O	.	0.2
Cc1cccc2c(=O)c(NC(=O)N3CCC(C(N)=O)CC3)c[nH]c12	-0.33	-1.2

Reprinted from the part before: four entries; new compounds follow.
SMILES	KSHV LANA nucl	Ab BasE inh
COc1cccc(-c2cc(C(=O)N(C)C3CCCCC3)[nH]n2)c1	-1	-9.0
CCN1CCn2c3c(c4cc(Cl)ccc42)CCCC31 (configuration not stated)	.	-1.6
COCN1C(=O)c2cc(Cl)c(Cl)cc2C1=O	.	0.2
Cc1cccc2c(=O)c(NC(=O)N3CCC(C(N)=O)CC3)c[nH]c12	-0.33	-1.2
COc1ccc(CC2CCC3(CC2)NC(=O)c2ccccc2O3)cc1 (configuration not stated)	.	1.7
CC(C(=O)Nc1ncccn1)(c1ccccc1)c1ccccc1	-0.092	0.3
COc1cc(-c2nnc(SCc3cn4cc(Cl)ccc4n3)o2)cc(OC)c1OC	.	-0.4
Cc1c(Cl)cccc1N=C1NC(=O)CS1	-0.23	-1.1
Cc1noc(C)c1COc1cccc(C(=O)OCN2C(=O)c3ccccc3C2=O)c1	.	3.0
CCOC(=O)c1ccc(N/C=C/C(=O)C(C)(C)C)cc1	-0.068	-1.4
CC(C)(C)NC(=O)CSc1nncn1NCc1ccccc1	0.13	-2.2
CCOC(=O)N1CCC(NC(=O)c2ccc3c(c2)N(Cc2cccc(Cl)c2)C(=O)c2ccccc2S3=O)CC1 (configuration not stated)	-1	0.9
COc1ccc(S(=O)(=O)N2CCC(C(=O)O)CC2)cc1	0.4	0.1
CCCCCc1c(C)nc(-c2ccccn2)[nH]c1=O	0.34	0.7
COc1cc(OC)c(OC)cc1/C=N/n1c(C)nnc1-n1nc(C)cc1C	0.64	0.4
CN1CCN(c2ccc(CNS(=O)(=O)c3ccc(-c4ccno4)s3)cc2)CC1	2.1	-3.1
CC(C)CCNC(=O)c1cc(=O)c2ccccc2[nH]1	.	2.8
O=C1CCC(C(=O)N(CC2CCCO2)C2CCS(=O)(=O)C2)=NN1c1c(F)c(F)cc(F)c1F (configuration not stated)	.	-0.3
C/C(=C\C(=O)C(F)(F)F)NCc1ccco1	.	-1.4
CS(=O)(=O)c1cc2ccccc2nc1N	-0.95	.
CCc1ccc2[nH]c(C(=O)Nc3ccc(C(F)(F)F)c(C#N)c3)cc2c1	.	1.2
Cc1ccc(C(CC(=O)N2CCCC2)c2ccccc2)c(O)c1 (configuration not stated)	-0.65	-0.3
CC(NC(N)=O)C(=O)N1CC=C(c2ccccc2)CC1 (configuration not stated)	.	-0.4
Cn1c(SC/C=C/c2ccccc2)nc2sc3c(c2c1=O)CCCC3	.	-3.4
FC(F)(F)c1cccc(Cn2c(-c3cscn3)nc3ccccc32)c1	0.69	2.1
Cn1c(=O)n(CC(=O)O)c(=O)c2c1nc1n2CCN1c1ccc(Cl)cc1	-0.28	-0.2
CCN1CCN(C(=O)CCCn2c(=O)[nH]c3cc(Cl)ccc3c2=O)CC1	-0.16	0.1
CC(C)CN1C(=O)c2ccccc2C(C(=O)NCc2cccs2)C1c1cccs1 (configuration not stated)	-0.57	1.4
Cc1ccc(-n2cccn2)cc1	0.04	-0.3
Cn1cc(Br)cc(Br)c1=O	0.68	-0.5
CCC(=O)OCC(=O)C1(OC(=O)CC)[C@H](C)C[C@H]2[C@H]3[C@H]([C@@H](O)C[C@@]21C)[C@@]1(C)C=CC(=O)C=C1C[C@H]3Cl (some centres not stated)	0.49	-0.2
CCOC(=O)C1CCN(C(=O)c2cccc(C(=O)N3CCC(C(=O)OCC)CC3)c2)CC1	0.33	-1.0
COC(=O)c1cc(CSc2nnc(Nc3ccc(C)cc3C)s2)oc1C	.	2.0
S=c1[nH]ncn1/N=C/c1ccccc1	2.3	0.6
CC1=CC(C)(C)Nc2ccc(OC(=O)c3ccco3)cc21	0.13	1.2
CC(=O)NC1(NC(C)=O)CC(c2ccccc2)N(C)CC1C (configuration not stated)	-0.65	1.1
O=C(c1cccnc1)N1N=C2CCCCC2C1(O)C(F)(F)F (configuration not stated)	-0.47	2.8
CC1=N/C(=C/c2ccccc2)C(=O)O1	0.41	1.1
CCCCC/C=C\C/C=C\C/C=C\C/C=C\CCCC(=O)O[C@@H](CO)COC(=O)CCCCCCCCCCCCCCCCC	-0.0045	-0.5
COC(=O)c1sc(-c2ccc(Cl)cc2)nc1C	-0.82	.
COc1ccc(-c2c3c(nc4c(C#N)c(C)n(-c5ccccc5)c24)CCC3)cc1	.	0.3
Cc1cc(C(=O)NCc2ccc(S(N)(=O)=O)cc2)c(C)o1	.	6.2
CN1/C(=C\C=N\NS(=O)(=O)c2ccccc2)C(C)(C)c2ccccc21	.	-0.9
Cc1cc(C)c2c(N)nsc2n1	.	-2.7
Cc1cc(-c2csc(NC(=O)C3CC3)n2)c(C)n1-c1ccc(F)cc1	.	-0.9
CSc1nc(N)n(-c2ncccc2C(F)(F)F)n1	-0.1	1.8
O=C1NC(=O)C(=Cc2ccc(-c3ccccc3)o2)C(=O)N1	.	0.9
CC(C)(C)C(=O)N(CN1C(=O)c2ccccc2C1=O)c1cccc(F)c1	.	2.1
CC1=C(C#N)C(=O)N(C)C(C)(C)C1	-8.8	37
Cc1ccc2nc(SC3CCCC3)nc(=O)n2c1	0.075	2.3
O=C1CCC(C(=O)O)=NN1	-1.8	1.1
COc1ccc(CN(C)C(=O)c2ccc(C)cc2O)c(OC)c1	.	-2.1
O=C(CN1CCc2ccccc21)N1CCN(S(=O)(=O)c2ccccc2)CC1	.	-2.4

A portion of the library (hit frequency here may not be typical).
